SARS PLP yeast: qHTS of Yeast-based Assay for SARS-CoV PLP. S. cerevisiae expressing SARS-CoV PLpro, growth rescue; control for the full effect not named in the record. Potency, µM (doses to about 32.9 µM), for the others: at the highest dose activity, positive = growth rescue. actives 0.19% (n = 330,000). AID 485353, 2010; active means well fitted rising curve with a large enough effect; inconclusive means small, poorly fitted or top-dose-only effect; inactive means no such curve, though single readings can be large or run the other way; also: 0% is about no effect; nearly all actives have a fitted effect of over 55% in size; growth read by luminescence after 48 h
NS1 function inh: qHTS Assay for Inhibitors of Influenza NS1 Protein Function; actives 0.4% (n = 270,000); Potency, µM (doses to about 46.1 µM), without a hit: at the highest dose activity, positive = more growth; S. cerevisiae slowed by influenza A NS1, growth recovery by OD600; active means well fitted rising curve with a large enough effect; inconclusive means small, poorly fitted or top-dose-only effect; inactive means no such curve, though single readings can be large or run the other way; also: nearly all actives have a fitted effect of over 50% in size
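S. cerevisiae expressing influenza A NS1, grown in glucose, washed, then diluted 1:100 into pH 6.0 -URA galactose medium with 23 nl compound. Growth recovery read as OD600; NS1-free strain serves as control.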
2A StopGo: High Throughput Screening for Foot and Mouth Disease Virus Antivirals; Potency, µM (top dose mostly 57.9 µM), inactives show at the top dose signal change, negative = less light; human cells with a luciferase reporter of 2A StopGo recoding; control for the full effect not named in the record; actives 1.2% (n = 410,000); active = well fitted falling curve with a large enough effect; inconclusive = small, poorly fitted or top-dose-only effect; inactive = no such curve, though single readings can be large or run the other way; tested in HEK293T cells; also: % is scaled to controls: 0 for no effect and ±100 for the full control effect; nearly all actives have a fitted effect of over 45% in size; luciferase light after 4 h
Marburg entry inh: qHTS for inhibitors of binding or entry into cells for Marburg Virus | Marburg virus pseudotyped entry inhibition, cell reporter; control for the full effect not named in the record; about a third of the inactives were read at about 46 µM | Potency, µM (titrated, usually from 37.8 µM), for inactives: top-dose activity change, negative = inhibition, most hits filed as inhibitors | actives 1.8% (n = 300,000); active = well fitted inhibition curve with a large enough effect; inconclusive = small, poorly fitted or top-dose-only effect, or effect the other way; inactive = flat fitted curve, though single readings scatter; tested in HEK293 cells; about a fifth of its hits are not listed in these tables; also: % is scaled to controls: 0 for no effect and ±100 for the full control effect; luciferase read-out
Cruzain inh Det: qHTS Assay for Promiscuous and Specific Inhibitors of Cruzain (with detergent); Cruzipain (Trypanosoma cruzi), P25779; Potency, µM, inactives show max response, negative = inhibition, usual class: inhibitors; purified cruzain, Z-FR-AMC fluorescence, 0.01% Triton; actives 0.43% (n = 200,000);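 also: plate controls were neutral wells for no effect and buffer without enzyme for full effect; nearly all actives have a fitted effect of over 40% in size; top concentration of the series not given in the record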
Target sequence (P25779 123-467 limits assumed): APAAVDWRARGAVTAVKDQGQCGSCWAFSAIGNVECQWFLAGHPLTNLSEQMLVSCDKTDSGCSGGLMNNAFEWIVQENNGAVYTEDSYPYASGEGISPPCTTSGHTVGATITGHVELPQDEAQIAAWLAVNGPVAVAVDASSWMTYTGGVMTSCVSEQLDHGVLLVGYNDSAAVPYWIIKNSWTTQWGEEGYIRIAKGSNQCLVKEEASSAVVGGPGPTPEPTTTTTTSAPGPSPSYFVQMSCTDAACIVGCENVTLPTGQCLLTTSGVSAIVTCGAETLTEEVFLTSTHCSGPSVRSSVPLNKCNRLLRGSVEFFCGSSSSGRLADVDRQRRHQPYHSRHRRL
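Enzyme 1.5 nM, Z-FR-AMC 2 uM, NaOAc 100 mM pH 5.5, DTT 5 mM, Triton X-100 0.01%; 15 min RT compound preincubation; kinetic ex360/em450, 60 s delta.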
RE007 growth inh: qHTS Assay for Inhibitors of the HIV-1 protein Vpr. S. pombe RE007 Vpr strain, BacTiter-Glo ATP luminescence, 24 h; control for the full effect not named in the record. Potency, µM (top dose mostly 92.2 µM), for the others: at the top dose activity change, negative = less growth. actives 0.21% (n = 360,000); active = well fitted falling curve with a large enough effect; inconclusive = small, poorly fitted or top-dose-only effect; inactive = no such curve, though single readings can be large or run the other way;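 also: % is scaled to controls: 0 for no effect and ±100 for the full control effect; nearly all actives have a fitted effect of over 50% in size; the assay follows cell death caused by Vpr and the record does not say whether a fall means rescue or toxicity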
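Fission yeast strain RE007, carrying one chromosomally integrated HIV-1 vpr copy, was seeded at OD 0.01 in PMG+AL medium with 23 nL pinned compound. After 24 h at 30 °C and 99% humidity, viability was read by BacTiter-Glo luminescence.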
LASV entry inh: qHTS for Inhibitors of binding or entry into cells for Lassa Virus | Lassa virus pseudotype entry inhibition, cell reporter; control for the full effect not named in the record | Potency, µM (titrated, usually from 37.9 µM), for inactives: at the top dose activity change, negative = inhibition, actives largely listed as inhibitors | actives 1.2% (n = 300,000); active means well fitted inhibition curve with a large enough effect; inconclusive means small, poorly fitted or top-dose-only effect, or effect the other way; inactive means flat fitted curve, though single readings scatter; tested in HEK293 cells; also: % is scaled to controls: 0 for no effect and ±100 for the full control effect; nearly all actives have a fitted effect of over 50% in size; luciferase read-out
Cruzain inh noDet: qHTS Assay for Promiscuous and Specific Inhibitors of Cruzain (without detergent). Cruzipain (Trypanosoma cruzi), P25779. purified cruzain, Z-FR-AMC fluorescence, no detergent. Potency, µM, without a hit: max response, negative = inhibition, actives largely listed as inhibitors. actives 2.3% (n = 200,000). AID 1476, 2009;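 also: plate controls were enzyme without inhibitor for no effect and buffer without enzyme for full effect; nearly all actives have a fitted effect of over 40% in size; top concentration of the series not given in the record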
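Detergent-free condition (0.00005% Triton X-100) in acetate buffer pH 5.5 with DTT. 1.5 nM enzyme and compound were pre-mixed 15 min, then 2 uM Z-FR-AMC substrate added; reaction progress from fluorescence change between first and third reads (60 s).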
Active calls of the source: *; u = inconclusive; x = not tested or not shown; [ ] = dose if it differs, or a comment. Unless noted, calls follow the shape of the dose curve; as a rule, active = well fitted curve in the direction sought with a large enough effect; inconclusive = small, poorly fitted or top-dose-only effect, or another doubt; inactive = no such curve, though single readings can be large; an effect the other way counts as inactive or inconclusive. Potency is read from the fitted curve at half-maximal effect.

SMILES	SARS PLP yeast	NS1 function inh	2A StopGo	Marburg entry inh	Cruzain inh Det	RE007 growth inh	LASV entry inh	Cruzain inh noDet
CN(C)S(=O)(=O)c1cccc(NC(=O)c2cc3ccccc3o2)c1	-12%	6%	9%	u	-5.3%	16%[3.69 µM]	1%	-20%
O=C(NC1=NCCS1)C12CC3CC(C1)CC(C(=O)NC1=NCCS1)(C3)C2	5%	0%	u	5%	5.5%	-17%	3%	-7%
CCCn1nnnc1NCc1ccc(SC)cc1	-3%	0%	0%	x	x	0%	x	x
Cc1ccc(C(=O)NCC(=O)N2CCC(Cc3ccccc3)CC2)cc1	2%	-50%	-25%	-2%[46.1 µM]	x	9%	-10%	x
Cc1ccc(-c2noc(CSc3nc(N)cc(N)n3)n2)cc1	-7%	9%	-15%	-21%	-0.6%	-13%	15%	-1%
COc1cccc(CN=c2c([N+](=O)[O-])nn(-c3ccccc3C)n2O)c1	-1%	x	u	2%	x	34%	0%	x
CCCCOCCCNC(=O)c1ccc([N+](=O)[O-])c(C)c1	-12%	-17%	-21%	8%	-2.5%	-5%	-13%	0%
CCc1ccc(NC(=O)CC2C(=O)NCCN2C(=S)Nc2ccccc2)cc1 (stereo unspecified)	1%	17%	-23%	u	-6.1%	-5%	0%	u
O=C(O)c1ccccc1NS(=O)(=O)c1cccc2cccnc12	-3%	2%	-12%	0%	8.1%	9%	12%	1%
CCC1(c2ccc(F)cc2)NC(=O)N(CC(=O)NCc2ccccc2Cl)C1=O (stereo unspecified)	-1%	-2%	-16%	x	x	-2%	x	x
CCN(CC)S(=O)(=O)c1ccc(NC(=O)CSc2cccc[n+]2[O-])cc1	-4%	-3%	5%	14%	-1.8%	-13%	-6%	16%
CSC(=S)N/N=C/c1ccccc1	-1%	x	7%	13%[46.1 µM]	x	u	29%[46.1 µM]	x
CC1(c2ccc(OC(F)F)cc2)NC(=O)N(CC(=O)Nc2cccc(S(N)(=O)=O)c2)C1=O (stereo unspecified)	1%	-5%	-13%	x	x	9%	x	x
COCCn1c(SCC(=O)N2CCCCC2)nc2c(c1=O)SC(C)C2 (stereo unspecified)	-3%	-4%	1%	23%	x	-8%	4%	x
Cc1cccc(C(=O)Nc2ccccc2OCc2cc(=O)n3cc(C)ccc3n2)c1	x	x	-26%	x	3.2%	x	26%[46.1 µM]	6%
COc1ccc(-c2[nH]ncc2CN2CCC(N3CCSCC3)CC2)cc1F	0%	5%	-4%	-29%	x	3%	10%[46.1 µM]	x
COc1ccc(S(=O)(=O)N(CCc2ccccc2)CC(N)=O)cc1	0%	-2%	11%	27%[46.1 µM]	x	0%	5%	x
Cc1cc(NC(=S)NC(=O)c2ccccc2)ccc1-c1cc2ccccc2oc1=O	9%	19%	u	u	-4.6%	10%	u	-61%
Cc1ccc2c(c1)C=CC(C)(C)S2(=O)=O	-1%	15%	-15%	18%	-1.7%	12%	13%	5%
COc1ccc(C2CC(c3ccccc3)=NN2c2ccc(/C=N/NC(=O)c3ccncc3)cc2)cc1 (stereo unspecified)	-2%	1%	0%	u	-2.7%	-25%	-28%	-21%
COc1cccc(C2/C(=C(/O)c3ccccc3)C(=O)C(=O)N2Cc2ccco2)c1 (stereo unspecified)	0%	6%	32%[activator]	-4%[46.1 µM]	x	-3%	u	x
COc1ccccc1NCC(=O)Nc1cc(S(=O)(=O)N2CCOCC2)ccc1N1CCOCC1	0%	-1%	26%	2%	x	2%	-2%	x
O=S(=O)(c1ccc2c(c1)OCCO2)N1CCC(n2nnc3cc(F)ccc32)CC1	2%	-18%	-25%	4%	-2.4%	4%	-1%	-11%
CCCN(CCC)C(=O)CC(c1ccccc1)c1cc(C)ccc1O (stereo unspecified)	-5%	-1%	-28%	u	-9.1%	-4%	u	-1%
CCOC(=O)c1ccc2[nH]c(C)c(CCC(C)=O)c(=O)c2c1	0%	10%	x	28%	-0.3%	-13%	20%	-5%
COc1cc2[nH]c(=O)n(CCCCCC(=O)N3CC=C(c4ccccc4)CC3)c(=O)c2cc1OC	7%	5%	u	8.9µM*	-9.3%	-3%	u	u
CCN(CC)CCN(Cc1cc2cc3c(cc2[nH]c1=O)OCO3)C(=S)NCc1ccco1	-1%	5%	5%	u	x	-8%	u	x
COc1ccc(-c2cc(C(=O)NC(C(=O)O)C(C)C)c(C)o2)cc1OC (stereo unspecified)	-2%	5%	45%[activator]	u	-0.9%	-7%	-1%	5%
COc1ccccc1NC(=O)Nc1nc(CC(=O)N2CCN(c3ccccc3)CC2)cs1	3%	x	u	7%[46.1 µM]	x	10%	u	x
COc1cc(CNCc2ccc(SC)cc2)cc(OC)c1	-13%	-20%	u	u	-1.9%	-3%	5%	-4%
Cc1ccc(-c2cc(C(=O)OCC(=O)Nc3cc(C)on3)c3ccccc3n2)c(C)c1	-19%	-13%	0%	3%[46.1 µM]	-2.1%	-11%	-1%	5%
Cc1cc(/C=C2\SC(=S)NC2=O)c(C)n1-c1cccc(O)c1	-7%	-4%	-6%	x	x	21%	x	x
O=C(CCl)Nc1cccc(CP(=O)(c2ccccc2)c2ccccc2)c1	0%	5%	-29%	u	x	0%	7.9µM*	x
CC1(C)CC(=O)C(C(=O)c2ccccc2)C(=O)C1	1%	5%	-12%	0%	x	-17%	5%	x
O=C(O)CCC(=O)N1N=C(c2cccs2)CC1c1cccc([N+](=O)[O-])c1 (stereo unspecified)	12%	15%	-7%	-19%	x	1%	1%	x
Cc1c(NC(=O)CN2C(=O)c3cccc4cccc2c34)c(=O)n(-c2ccccc2)n1C	u	4%	-16%	0%	3.8%	-12%	11%	0%
CC1CN(C(=O)CCNC(=O)c2ccccc2Cl)CC(C)O1 (stereo unspecified)	1%	12%	-1%	1%[46.1 µM]	x	-7%	13%[46.1 µM]	x
O=C(/C=C/c1ccco1)NC(=S)Nc1ccccc1Br	-2%	13%	5%	x	x	-8%	x	x
CN(C)c1ccc(NC(=O)C[n+]2ccccc2)cc1	1%	-1%	-12%	x	x	7%	x	x
Cc1ccc2c(c1)c1c(c(=O)n(-c3ccccc3)c(=O)n1CC(=O)c1ccc(Cl)cc1)n2C	x	x	7%	x	3.6%	x	-2%[46.1 µM]	13%
O=C(O)Cn1c(SCc2ccccc2)nc2ccccc21	5%	-7%	13%	u	1.2%	30%	19%	4%
O=C(NCc1cccnc1)c1cc(-c2cccs2)on1	0%	-9%	87%[activator]	-2%	-9.7%	9%	x	-9%
Cc1c(CNCCCc2ccccc2)c(C(=O)O)c(C)n1Cc1ccc(Cl)cc1	x	x	-20%	9%[46.1 µM]	-2.8%	x	-1%[46.1 µM]	-2%
COc1cccc(N2CCN(C(=S)Nc3ccc(C)cc3C)CC2)c1	0%	24%	-10%	x	x	7%	x	x
CC(C)CC(=O)Nc1ccc2nc(SCC(=O)N3CCc4ccccc43)sc2c1	x	x	u	2%[46.1 µM]	-3.7%	x	5%[46.1 µM]	-1%
O=C1CN(c2nc(-c3cccnc3)nc3scc(-c4ccccc4)c23)CCN1	0%	x	20%	u	x	2%	-24%	x
CC(C)NC(=S)NNc1nc2ccccc2s1	18%	x	0%	-2%[46.1 µM]	x	5%	12%	x
COC(=O)CSc1nnc(C)n1-c1ccc(C)cc1	7%	6%	-10%	-16%[46.1 µM]	1.8%	24%	-3%	4%
CN(C)c1ccc(N/C=C/C(=O)c2ccccc2)cc1	-7%	-14%	10µM*	u	0.2%	-14%	6.5µM*	u
Cn1nc(C(F)(F)F)cc1C(=O)O	0%	5%	-3%	10%[46.1 µM]	x	6%	27%	x
COc1cc(C(=O)N2CCN(C(=O)COc3cccc(C)c3)CC2)cc(OC)c1OC	x	x	-23%	1%[46.1 µM]	-0.9%	x	22%[46.1 µM]	-6%
CCCCn1nc2cc(C(=O)NCc3cc(C(F)(F)F)cc(C(F)(F)F)c3)ccc2c1OCC	-3%	12%	-7%	x	-14%	-12%	x	2%
COc1ccc(C2(CNC(=O)C(=O)Nc3ccc(F)cc3)CCCC2)cc1OC	x	x	u	2%[46.1 µM]	-0.8%	x	8%[46.1 µM]	u
COc1cc(OC)c(NC(=O)c2cc3ccccc3cc2O)cc1Cl	x	x	-17%	u	x	u	u	x
CC(C)Cc1nnc(NC(=O)Cc2cccs2)s1	0%	0%	11%	2%[46.1 µM]	x	-12%	12%	x
Cc1ccc(C(O)P(=O)(OC(C)C)c2ccc(N(C)C)cc2)cc1 (stereo unspecified)	0%	3%	12%	5%[46.1 µM]	x	11%	0%	x
Cc1ccc(C)c(OCCC(=O)OCC(=O)Nc2cccc(S(=O)(=O)N3CCCC3)c2)c1	-7%	x	11%	23%	x	7%	-1%	x
OCCC1CN(Cc2ccc(Oc3ncccn3)cc2)CCN1Cc1ccc(F)c(F)c1 (stereo unspecified)	0%	-4%	-23%	x	x	0%	x	x
COc1nonc1NCn1nc(C)cc1C	-3%	1%	17%	17%	3.5%	5%	u	-10%
COc1ccc(C(C(=O)NC(C)(C)C)N(CCc2ccccc2)C(=O)CCC(=O)Nc2cc(C)on2)cc1 (stereo unspecified)	1%	14%	35%[activator]	8.9µM*	x	8%	-4%	x
O=C(COc1coc(CN2CCN(c3ccccc3)CC2)cc1=O)N1CCc2ccccc21	6%	x	-11%	16%	x	5%	-18%	x
O=C(c1nc2ccccc2s1)N1CCSCC1	2%	4%	55%[activator]	25%	-0.2%	-1%	u	-2%
Cc1ccc(NC(=O)c2cc(S(=O)(=O)N3CCCC3)cn2C)cc1	2%	-11%	-26%	x	x	14%	x	x
